# UCH37 inh: inhibitors of human UCH37 deubiquitinase, primary screen, biochemical, Ub-AMC cleavage, fluorescence | Ubiquitin carboxyl-terminal hydrolase isozyme L5 (Homo sapiens), Q9Y5K5 | purified proteasome/UCH37 | inhibition, % (no concentration beside the values) | hit rate 0.33% among 330,000 | AID 588478, 2011;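 active = mean of two replicates above 20%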;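 also: 0% = compound-free wells with enzyme and 100% = wells lacking proteasome; stock transfer was 100 nL into about 20 µL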
#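 Signal – fluorescence, ex 355 nm, em 460 nm · System – Proteasome-bound UCH37 · Input – 0.15 nM proteasome as dispensed · Timing – 30 min preincubation with enzyme, 25 min cleavage at room temperature · Read-out basis – percent inhibition of cleavage signal versus uninhibited and no-proteasome wells · Medium – Tris-HCl pH 7.4 with ATP-MgCl2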
# LANA-H2B inh: blockers of LANA interaction with H2A/H2B – biochemical, FP readout, HTS, primary screen | Protein LANA1 (Human herpesvirus 8 type P (isolate GK18)), Q9QR71 | cell-free LANA-H2A/H2B peptide, fluorescence polarization | inhibition, % (concentration not given with the values) | hit rate 0.6% among 320,000 | AID 2629, 2010; in the data active = inhibition mostly above about 10%, no sharp cut-off; inactive = mostly below about 6.7%;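 also: stock transfer was 7.5 nL into about 10 µL; 0% = median of vehicle wells and 100% = median of positive control wells; one replicate is shown; the record names a cut of 25% in any replicate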
# Target sequence (Q9QR71 whole entry, looked up): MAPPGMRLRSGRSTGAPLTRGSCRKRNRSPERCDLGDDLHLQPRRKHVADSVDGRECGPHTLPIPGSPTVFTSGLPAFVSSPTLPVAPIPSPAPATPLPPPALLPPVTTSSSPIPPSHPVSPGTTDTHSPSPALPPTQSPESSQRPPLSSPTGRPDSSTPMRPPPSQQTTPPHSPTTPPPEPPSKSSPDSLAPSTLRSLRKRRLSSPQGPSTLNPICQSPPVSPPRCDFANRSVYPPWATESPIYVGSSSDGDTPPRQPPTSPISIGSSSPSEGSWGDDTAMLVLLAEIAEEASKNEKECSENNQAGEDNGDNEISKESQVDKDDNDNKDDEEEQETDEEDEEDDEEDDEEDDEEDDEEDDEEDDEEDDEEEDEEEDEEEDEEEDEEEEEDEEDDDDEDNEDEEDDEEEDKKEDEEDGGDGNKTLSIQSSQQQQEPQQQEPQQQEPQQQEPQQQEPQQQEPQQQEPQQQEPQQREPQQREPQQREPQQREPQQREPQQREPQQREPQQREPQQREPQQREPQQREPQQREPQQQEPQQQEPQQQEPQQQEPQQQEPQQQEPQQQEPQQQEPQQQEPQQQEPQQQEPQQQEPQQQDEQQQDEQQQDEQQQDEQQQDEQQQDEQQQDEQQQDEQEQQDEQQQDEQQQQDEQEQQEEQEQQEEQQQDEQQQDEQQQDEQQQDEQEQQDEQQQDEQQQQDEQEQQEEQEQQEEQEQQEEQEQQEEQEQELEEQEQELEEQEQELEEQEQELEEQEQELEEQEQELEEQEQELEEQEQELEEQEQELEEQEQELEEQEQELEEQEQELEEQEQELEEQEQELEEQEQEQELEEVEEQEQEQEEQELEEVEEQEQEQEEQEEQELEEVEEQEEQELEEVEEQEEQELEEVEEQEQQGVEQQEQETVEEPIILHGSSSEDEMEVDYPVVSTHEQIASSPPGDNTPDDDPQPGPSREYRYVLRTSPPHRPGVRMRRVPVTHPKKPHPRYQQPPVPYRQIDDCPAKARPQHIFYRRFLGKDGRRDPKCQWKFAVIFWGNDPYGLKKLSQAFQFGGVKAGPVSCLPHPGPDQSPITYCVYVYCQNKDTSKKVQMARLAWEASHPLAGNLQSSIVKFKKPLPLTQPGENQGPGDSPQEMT
# FGF22 binding: binders of human FGF22 protein, primary screen, FGF22 synaptogenesis inhibitor project, biophysical, thermal shift, single point. Fibroblast growth factor 22 (Homo sapiens), Q9HCT0. recombinant FGF22 thermal shift, SYPRO orange fluorescence; percent of sucrose octasulfate shift, DMSO zero. calls only at 9.99 µM. hit rate 1.5% among 340,000. AID 651658, 2012;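 active = melting point raised past a set limit in the mean and every replicate; three in four hits are not shown here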
# ALR H2O2 inh: inhibitors of human ALR sulfhydryl oxidase, primary screen, biochemical, H2O2 detection, HRP-luminol luminescence, single point | FAD-linked sulfhydryl oxidase ALR (Homo sapiens), P55789 | purified ALR, DTT oxidation | inhibition, % (no concentration beside the values) | hit rate 3.8% among 290,000 | AID 485317, 2010;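 active = mean and each replicate at 75% or more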;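 also: stock transfer was 7.5 nL into about 7.5 µL; 0% = neutral wells and 100% = wells with inactivated enzyme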
# Beta2AR agonist: beta2AR agonists driving receptor internalization, primary screen, cell-based, FAP fluorogen, flow cytometry; hit rate 0.43% among 340,000; Am2.2-beta2AR cells; reference of the scale not given here; response, % (no concentration beside the values); AID 504454, 2011;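 active = response above a set limit, near 3 SD of response in nonfluorescent compounds, cut at about 42% in these data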;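 also: stock transfer was 100 nL into about 11 µL; a reference agonist was the positive control; negative values mostly stem from fluorescent compounds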
# HNF4A DNA FP: change in binding of human HNF4A to DNA, primary screen, biochemical, fluorescence polarization, FITC-DNA | 1 h | activity change, % at 10 µM | AID 1224865, 2016 | hit rate 0.3% among 360,000 | Hepatocyte nuclear factor 4-alpha (Homo sapiens), P41235; in the data active = activity change above about 30%, passing the limit was not always enough;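 also: controls were the assay level and a saturating level of protein; the project sought stronger binding though the title names inhibitors; some compounds called inactive have numbers as strong as hits; positive values seem to mean higher polarization but the record does not say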
# Ecoli growth: E. coli growth inhibition, primary screen, OD600. Escherichia coli growth, 23 h; stronger effect = lower value. OD600 absorbance (concentration not given with the values). hit rate 0.21% among 330,000;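 active = OD600 absorbance below the run mean of sample wells minus 3.6 SD, in any replicate, cut at about 0.56 in these data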;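 also: stock transfer was 300 nL into about 60 µL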
# * marks the source's active call; other numbers are inactive results; i = inactive; / = no result given. The list is partial (hit frequency here may not be typical).
SMILES,UCH37 inh,LANA-H2B inh,FGF22 binding,ALR H2O2 inh,Beta2AR agonist,HNF4A DNA FP,Ecoli growth
CCn1cc(C(=O)NCC2CCCO2)c(=O)c2cc(F)c(N3CCN(C)CC3)cc21 (centres undefined),-17,1.6,/,-18,-10,0.5,0.74
COc1ccc(Nc2nc3ccccc3n3cnnc23)cc1,-0.6,-0.5,/,-1,-4,-2.8,0.67
O=[N+]([O-])c1cccc(C=Nc2cccc3ccccc23)c1O,/,3.3,i,11,5,2.2,/
Fc1ccccc1Cc1noc(CN2CCCC(CN3CCOCC3)C2)n1 (centres undefined),2.2,5.1,i,/,1,5.7,0.69
CC(C)c1c(C(=O)N/N=C/c2ccco2)nnn1-c1nonc1N,/,-3.8,i,20,-12,-0.4,/
COc1cccc(C(=O)O[C@H]2[C@H](C)NS(=O)(=O)[C@H]3C[C@@H]4C=C[C@]23O4)c1,4.5,4.6,i,-2,-3,-0.1,0.77
COC(=O)c1ccc(NC(=O)COC(=O)c2nc3nccc(C)n3n2)cc1,3.6,-7.0,i,-17,-6,0.5,0.68
CC(=O)c1cccc(N(CC(=O)NC2CCCCC2)C(=O)c2csnn2)c1,1.1,-2.0,i,-6,-5,2.9,0.64
CN(Cc1ccc(Cl)cc1)C(=O)c1ccc(S(=O)(=O)NCc2ccco2)cc1,0.0,-4.7,i,/,1,-0.7,0.68
CCC(=O)N1CCc2cc(Br)cc(S(=O)(=O)NCCN3CCCC3)c21,2.1,-4.9,i,-1,1,-1.8,0.67
COc1cc(N)c(Cl)cc1C(=O)NC1CCN(Cc2ccccc2)CC1,/,/,i,/,-4,0.6,/
O=C(Nc1nc2ccsc2c(=O)s1)c1ccco1,-4.6,3.3,i,1,-5,-4.8,0.65
Cc1ccc(NC(=O)N2CCCC2C(=O)Nc2ccc(-n3cnnn3)c(C)c2)cc1 (centres undefined),/,-1.1,/,-1,-4,-1.8,0.71
Cc1ccc(C(=O)NNC2=NC(C)(C)Cc3ccccc32)cc1,2.7,4.0,i,-14,1,6.4,0.64
COc1ccc(F)cc1C(=O)C1CCCN(Cc2cnc(N3CCCC3)s2)C1 (centres undefined),2.4,-4.4,i,-2,-5,1.1,0.7
N#C/C(=C/c1ccc(N2CCOCC2)o1)c1ccc(Br)cc1,0.9,-0.1,/,92*,-332,112,0.74
COc1ccc([C@H]2CC(=O)C=C(c3cccc(NC(C)=O)c3)C2)cc1,0.7,-1.3,i,-13,-9,-2.8,/
Cc1oc(-c2cccs2)nc1CNC[C@H]1O[C@@H](n2cnc(C(N)=O)n2)[C@H](O)[C@@H]1O,/,/,i,/,2,3.5,/
CN1CCN(c2ccc([N+](=O)[O-])cc2C(=O)N2CCOCC2)CC1,10,3.2,/,-1,-8,1.0,0.74
COc1ccc([C@H]2C(C(=O)O)=C[C@@H](C(C)(C)C)N2S(=O)(=O)c2ccccc2)cc1,0.9,/,i,3,9,3.2,0.68
COc1ccccc1N1C(=O)S/C(=C\c2cccs2)C1=O,6.4,-0.6,/,1,1,3.4,0.65
CC(=O)Nc1ccc(NC(=O)CSc2ccc3nnc(CCNC(=O)c4ccccc4)n3n2)cc1,0.6,-5.6,i,/,-17,1.7,0.68
CCOC(=O)C1CCN(CC(O)COc2ccc(C(C)(C)CC)cc2)CC1 (centres undefined),3.4,-7.1,/,2,-4,1.6,0.64
O=C(NCCc1ccc(Cl)cc1)c1ccc2c(c1)OCO2,0.5,-0.2,i,2,0,-2.1,0.72
COc1cc2c(cc1OC)CN(C(=S)Nc1ccccc1)CC2,-0.7,1.7,/,-3,-6,-1.5,0.72
Cc1ccnn1CCSCC(=O)O,3.2,5.2,/,0,-10,-3.8,0.68
C=CCN=C1NN=C(c2cc(C)n(CCOC)c2C)CS1,-0.2,5.1,i,-1,-3,-1.7,0.69
CCn1c(CCNC(=O)c2ccco2)nc2ccccc21,1.2,-0.2,i,-15,2,-0.4,0.68
Cc1ccc(S(=O)(=O)N2[C@@H](c3ccccc3)C(C(=O)O)=CC[C@H]2c2cccs2)cc1,1.3,-2.3,i,2,-5,0.9,/
CC(=O)Oc1ccc(C(=O)O)cc1OC(C)=O,1.5,4.8,/,24,5,10,0.67
Cc1ccc(-n2nc(C)c3c(C)cc(=O)[nH]c32)cc1,-1.0,11,/,-1,-5,-3.3,0.71
CCN(CC(=O)Nc1ccccc1C(F)(F)F)C(=O)c1cccc(N2C(=O)CCC2=O)c1,5.3,0.5,i,/,-4,-2.3,0.72
COc1ccc(C)cc1S(=O)(=O)Nc1cccnc1,3.2,0.0,/,-4,-3,1.0,0.7
COc1cc(C(=O)NCC(c2ccco2)N2CCCC2)ccc1OCc1ccccc1 (centres undefined),3.2,1.2,i,-2,-6,5.5,0.7
O=C(/C=C/c1ccc(Cl)cc1Cl)N(Cc1ccccc1)C1CCS(=O)(=O)C1 (centres undefined),1.8,-1.9,/,/,-17,2.3,0.69
CCC1CCCCN1C(=S)NC(=O)c1ccc(F)c(S(=O)(=O)N2CCOCC2)c1 (centres undefined),3.9,-1.0,/,/,-5,-1.2,0.7
Cc1ccc(CNC(=O)C(Cc2ccccc2)NS(=O)(=O)c2cccs2)cc1 (centres undefined),-0.5,-1.7,/,0,3,6.7,0.66
CCN1CCN(Cc2ccc(NC(=O)Nc3ccc(OC)cc3)cc2)CC1,4.2,-2.6,i,70,5,1.2,0.74
COc1ccc(C(=O)NCCc2nnc3ccc(SCC(=O)N4CCOCC4)nn23)cc1,-2.1,-1.3,i,-8,8,0.6,0.7
CCNCCC(=O)N1c2ccccc2Sc2ccc(C(F)(F)F)cc21,2.4,8.4,i,5,2,1.2,0.62
O=C1CC(c2ccc(F)cc2)C(n2cncn2)C(O)=C1C1NCCc2ccccc21 (centres undefined),3.4,4.4,i,1,-4,-10,0.69
CCC(CC)C(=O)Nc1cccc(C(=O)Nc2ccc(OC)cc2[N+](=O)[O-])c1,3.0,1.4,/,-3,7,4.2,0.74
COc1ccc(CN2C(=O)CCCc3ccccc32)cc1,-0.3,0.7,i,/,4,0.9,0.67
Cc1cn([C@H]2C[C@H](O)[C@@H](CCC(=O)NCc3ccco3)O2)c(=O)[nH]c1=O,/,/,i,/,-4,-1.1,/
C=CCO/N=C(/C)c1c(O)c(CC)c(-c2ccccc2)n(-c2ccccc2)c1=O,/,2.8,/,-2,12,-0.8,/
CCOC(=O)c1[nH]c2c(c1-c1ccccc1)C(=O)CC(c1ccc(Cl)cc1)C2 (centres undefined),2.3,5.7,i,-15,5,5.1,0.72
CC(C)c1ccc(NC(=O)C2C3C=CC4(CN(CCCN5CCOCC5)C(=O)C24)O3)cc1 (centres undefined),-1.7,-1.8,/,-1,-2,3.8,0.68
Cc1nc(Nc2nc3ccccc3o2)nc(C)c1C(=O)Nc1ccc(F)cc1,3.1,6.8,i,-5,0,0.8,0.68
O=Cc1ccc(OCc2nnc(-c3ccccc3Br)o2)cc1,-1.2,-2.4,i,4,21,0.1,0.61
O=C(NN1C(=O)c2ccccc2NC1c1ccccn1)c1ccccc1 (centres undefined),-126,-1.7,/,-9,1,1.6,0.66
CC(=O)NC(CC(=O)N(C)C1CCCCC1)c1ccccc1 (centres undefined),1.2,-3.0,i,-20,15,-0.5,0.62
COc1cccc(CN2CC(C(=O)NCc3ccc(C)o3)CCC2=O)c1 (centres undefined),/,/,i,/,2,-5.2,/
Nc1nc2ccc(N3CCOCC3)cc2s1,2.8,5.0,/,98*,12,2.2,0.73
CCn1c(SCC(=O)Nc2ccc(OC)c(OC)c2)nc2c(c1=O)SCC2,8.3,2.8,i,99*,1,-3.0,0.68
COCc1cc(C)n(CC(=O)Nc2cc(C)cc(C)c2)c(=O)c1C#N,-1.8,-4.8,i,-2,-1,-3.2,0.67
COc1cc(C(C(=O)NC(C)(C)C)N(C(=O)CNC(=O)c2cccs2)c2cccnc2)cc(OC)c1OC (centres undefined),-1.0,4.6,i,-2,-5,-1.5,0.67
Cc1ccc(C)c(OCC(=O)N2CCOCC2)c1,-3.1,-0.9,/,-3,1,0.7,0.7
CCOC(=O)c1c(CC(C)C)csc1/N=C/C1C(=O)CC(C)(C)CC1=O,/,-2.2,i,-2,-10,-2.9,/
Brc1ccc(-c2cnc3n2CCCC3)cc1,0.1,-0.6,/,-13,3,2.7,0.69
N#Cc1ccc(Nc2ccccc2)c(N)c1,-62,6.6,/,98*,-2,0.7,0.79

# Continuation.
SMILES,UCH37 inh,LANA-H2B inh,FGF22 binding,ALR H2O2 inh,Beta2AR agonist,HNF4A DNA FP,Ecoli growth
Nc1nc(CSc2ccccn2)nc(Nc2ccccc2)n1,0.5,1.6,/,/,-4,-1.6,0.7
CSc1nc(-c2ccc(F)cc2)cc(=O)[nH]1,4.3,-7.9,i,-7,0,-1.7,0.7
O=C(OCC(=O)c1ccccc1Cl)C1=NN(c2ccccc2)C(=O)CC1,-1.2,0.1,i,-4,5,2.0,0.72
COc1cccc(N(CC(=O)N2CCCCCC2)S(C)(=O)=O)c1,1.8,-5.9,i,-2,1,-1.5,0.69
CCC(CO)NCc1ccc(OC2CCCC2)cc1 (centres undefined),5.6,-0.6,/,-27,/,1.1,0.71
CC(C)(C(=O)Nc1nccs1)c1ccccc1,1.0,-1.7,i,-26,-3,0.9,0.7
Cc1cccc(NC(=O)Cn2c(O)c(N=NC(=O)c3ccncc3)c3ccccc32)c1,4.0,-11,i,-5,0,-3.9,0.72
COc1ccc(S(=O)(=O)Nc2cccc(SC)c2)cc1OC,5.7,2.2,/,-21,3,0.8,0.69
Cc1ccc(N2C(=O)C3C4CC(=O)C(c5ccccc54)C3C2=O)cc1 (centres undefined),1.8,-0.1,/,-5,11,-8.9,0.68
CCOc1cc(N2CCOCC2)c(OCC)cc1NC(=O)C1CCCC1,4.8,1.8,/,-70,5,-1.4,0.7
CC(C)C(=O)N1CCN(c2ccccc2NC(=O)c2ccc([N+](=O)[O-])o2)CC1,/,-2.0,i,-26,-2,-0.3,/
CC1CN(c2nc(Nc3ccccc3)nc(N)c2[N+](=O)[O-])CC(C)O1 (centres undefined),6.7,-9.9,i,1,-2,-1.5,0.62
Cc1ccc2nc(-c3cccc(NC(=O)c4ccc5c(c4)OCCO5)c3)oc2c1,1.2,0.3,/,-12,21,2.2,0.67
Cc1nc2scc(-c3ccco3)c2c(=O)n1/N=C/N(C)C,/,-3.0,i,-20,1,-2.6,/
O=C(NCC1CC1)c1cccc2c1C(=O)c1ccc(N3CCCC3)cc1S2(=O)=O,1.4,-6.9,i,2,-6,61,0.71

# Gathered by group: the entries above containing a COOH group.
SMILES,UCH37 inh,LANA-H2B inh,FGF22 binding,ALR H2O2 inh,Beta2AR agonist,HNF4A DNA FP,Ecoli growth
COc1ccc([C@H]2C(C(=O)O)=C[C@@H](C(C)(C)C)N2S(=O)(=O)c2ccccc2)cc1,0.9,/,i,3,9,3.2,0.68
Cc1ccnn1CCSCC(=O)O,3.2,5.2,/,0,-10,-3.8,0.68
Cc1ccc(S(=O)(=O)N2[C@@H](c3ccccc3)C(C(=O)O)=CC[C@H]2c2cccs2)cc1,1.3,-2.3,i,2,-5,0.9,/
CC(=O)Oc1ccc(C(=O)O)cc1OC(C)=O,1.5,4.8,/,24,5,10,0.67
